High-throughput results (PubChem)
2A StopGo = High Throughput Screening for Foot and Mouth Disease Virus Antivirals | human cells with a luciferase reporter of 2A StopGo recoding; control for the full effect not named in the record | Potency, µM (doses to about 57.9 µM), for the others: at the top dose signal change, negative = less light | AID 1159524, 2015 | actives 1.2% (n = 410,000); active = well fitted falling curve with a large enough effect; inconclusive = small, poorly fitted or top-dose-only effect; inactive = no such curve, though single readings can be large or run the other way; tested in HEK293T cells; note: % is set by controls: 0 for no effect and ±100 for the full control effect; nearly all actives have a fitted effect of over 45% in size; luciferase light after 4 h
SARS PLP yeast = qHTS of Yeast-based Assay for SARS-CoV PLP. AID 485353, 2010. S. cerevisiae expressing SARS-CoV PLpro, growth rescue; control for the full effect not named in the record. actives 0.19% (n = 330,000). Potency, µM (titrated, usually from 32.9 µM), for the others: top-dose activity, positive = growth rescue; note: 0% is about no effect; nearly all actives have a fitted effect of over 55% in size; growth read by luminescence after 48 h
LASV entry inh = qHTS for Inhibitors of binding or entry into cells for Lassa Virus; Lassa virus pseudotype entry inhibition, cell reporter; control for the full effect not named in the record; actives 1.2% (n = 300,000); Potency, µM (series often up to 37.9 µM), for inactives: top-dose activity change, negative = inhibition, most hits filed as inhibitors; active means well fitted inhibition curve with a large enough effect; inconclusive means small, poorly fitted or top-dose-only effect, or effect the other way; inactive means flat fitted curve, though single readings scatter; tested in HEK293 cells; note: % is set by controls: 0 for no effect and ±100 for the full control effect; nearly all actives have a fitted effect of over 50% in size; luciferase read-out
Cruzain Triton = qHTS Assay for Promiscuous and Specific Inhibitors of Cruzain (with detergent); Potency, µM, without a hit: max response, negative = inhibition, most hits filed as inhibitors; purified cruzain, Z-FR-AMC fluorescence, 0.01% Triton; Cruzipain (Trypanosoma cruzi), P25779; actives 0.43% (n = 200,000); active = well fitted curve in the direction sought with a large enough effect; inconclusive = small, poorly fitted or top-dose-only effect, or another doubt; inactive = no such curve, though single readings can be large; an effect the other way counts as inactive or inconclusive;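 note: plate controls were neutral wells for no effect and buffer without enzyme for full effect; nearly all actives have a fitted effect of over 40% in size; top concentration of the series not given in the record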
Target sequence (P25779 123-467 limits assumed): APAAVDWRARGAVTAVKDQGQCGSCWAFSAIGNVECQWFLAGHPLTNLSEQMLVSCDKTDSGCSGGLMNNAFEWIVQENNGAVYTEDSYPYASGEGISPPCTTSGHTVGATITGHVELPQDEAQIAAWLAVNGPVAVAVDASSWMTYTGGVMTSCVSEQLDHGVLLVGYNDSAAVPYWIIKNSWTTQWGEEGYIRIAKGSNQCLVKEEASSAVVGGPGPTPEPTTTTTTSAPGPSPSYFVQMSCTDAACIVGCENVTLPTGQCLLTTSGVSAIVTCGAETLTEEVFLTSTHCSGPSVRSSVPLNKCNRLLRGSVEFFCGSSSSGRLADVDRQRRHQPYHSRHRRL
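In this qHTS format, compounds are incubated with 1.5 nM cruzain for 15 min at room temperature before 2 uM Z-FR-AMC is added. Release of AMC is followed at 360/450 nm, and progress is taken as the 60 s fluorescence difference.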
Cruzain noTriton = qHTS Assay for Promiscuous and Specific Inhibitors of Cruzain (without detergent). Cruzipain (Trypanosoma cruzi), P25779. purified cruzain, Z-FR-AMC fluorescence, no detergent. Potency, µM, for the others: max response, negative = inhibition, usual class: inhibitors. actives 2.3% (n = 200,000). AID 1476, 2009; active = well fitted curve in the direction sought with a large enough effect; inconclusive = small, poorly fitted or top-dose-only effect, or another doubt; inactive = no such curve, though single readings can be large; an effect the other way counts as inactive or inconclusive;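 note: plate controls were enzyme without inhibitor for no effect and buffer without enzyme for full effect; nearly all actives have a fitted effect of over 40% in size; top concentration of the series not given in the record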
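Detergent-free condition (0.00005% Triton X-100) in acetate buffer pH 5.5 with DTT. 1.5 nM enzyme and compound were pre-mixed 15 min, then 2 uM Z-FR-AMC substrate added; reaction progress from fluorescence change between first and third reads (60 s).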
NS1 inh = qHTS Assay for Inhibitors of Influenza NS1 Protein Function. AID 2326, 2010. Potency, µM (titrated, usually from 46.1 µM), for the others: at the top dose activity, positive = more growth. S. cerevisiae slowed by influenza A NS1, growth recovery by OD600. actives 0.4% (n = 270,000); note: actives are rising curves; nearly all actives have a fitted effect of over 50% in size
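In this qHTS, NS1 from influenza A is expressed in budding yeast, where it slows growth. Cells are switched from glucose to 2% galactose medium (pH 6.0, -URA), treated with compound, and growth recovery is read at OD600.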
RE007 growth inh = qHTS Assay for Inhibitors of the HIV-1 protein Vpr. AID 651644, 2012. S. pombe RE007 Vpr strain, BacTiter-Glo ATP luminescence, 24 h; control for the full effect not named in the record. actives 0.21% (n = 360,000). Potency, µM (doses to about 92.2 µM), without a hit: top-dose activity change, negative = less growth; active = well fitted falling curve with a large enough effect; inconclusive = small, poorly fitted or top-dose-only effect; inactive = no such curve, though single readings can be large or run the other way;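 note: % is set by controls: 0 for no effect and ±100 for the full control effect; nearly all actives have a fitted effect of over 50% in size; the assay follows cell death caused by Vpr and the record does not say whether a fall means rescue or toxicity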
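Fission yeast RE007 carrying one integrated HIV-1 vpr copy, seeded at OD 0.01 in PMG+AL medium with 23 nL pinned compound. Grown 24 h at 30 degrees; viability read by BacTiter-Glo luminescence after 5 min.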
Marburg entry inh = qHTS for inhibitors of binding or entry into cells for Marburg Virus. Marburg virus pseudotyped entry inhibition, cell reporter; control for the full effect not named in the record; about a third of the inactives were read at about 46 µM. Potency, µM (doses to about 37.8 µM), for the others: at the highest dose activity change, negative = inhibition, usual class: inhibitors. actives 1.8% (n = 300,000). AID 540276, 2011; active = well fitted inhibition curve with a large enough effect; inconclusive = small, poorly fitted or top-dose-only effect, or effect the other way; inactive = flat fitted curve, though single readings scatter; tested in HEK293 cells; about a fifth of its hits are not listed in these tables; note: % is set by controls: 0 for no effect and ±100 for the full control effect; luciferase read-out
Active calls of the source: *; ? = inconclusive; nt = no result given; & = joins results of further samples; [ ] = another dose, or the depositor's remark. Unless noted, calls come from the whole dose curve; as a rule, active means well fitted rising curve with a large enough effect; inconclusive means small, poorly fitted or top-dose-only effect; inactive means no such curve, though single readings can be large or run the other way. Potency is the fitted concentration of half-maximal effect.

SMILES | 2A StopGo | SARS PLP yeast | LASV entry inh | Cruzain Triton | Cruzain noTriton | NS1 inh | RE007 growth inh | Marburg entry inh
COc1ccc(NS(=O)(=O)c2cccc(C(=O)NCC3(N(C)C)CCCCC3)c2)cc1 | 2% | -9% | 3%[46.1 µM] | nt | nt | nt | -7% | ?
Cc1ccc(S(=O)(=O)N(C)CC(=O)OCC(=O)N2CCN(c3ccccc3)CC2)cc1 | -13% | -9% | ? | -0.2% | 6% | -34% | 7% | 19%
CCOC(=O)C1CCCN(C(=O)CCn2nc(-c3ccccc3)ccc2=O)C1 (stereo not given) | -6% | 0% | 7% | 4.3% | -7% | -6% | 0% | -1%
COC(=O)c1cccc(NC(=S)NC(C)C)c1 | 33%[activator] | -1% | 5% | nt | nt | nt | 6% | nt
COc1ccc(NC(=S)N2CCN(c3ncccn3)CC2)c(OC)c1 | -14% | 0% | nt | nt | nt | -1% | -4% | nt
COCc1cc(=O)[nH]c(/N=C(\N)Nc2cccc(C)c2)n1 | 24% | 15% | -14% | 6.5% | -7% | 0% | 10% | -6%
CN1CCCC1c1ccc(=O)[nH]c1 (stereo not given) | ? | nt | 13% | nt | nt | nt | -17% | -3%
COc1ccc(NC(=O)C(C)N2C(=O)c3ccccc3S2(=O)=O)c(OC)c1 (stereo not given) | -5% | 1% | 7% | nt | nt | nt | 36% | 11%
C/C(=N\NC(=O)CSCc1ccccc1Br)c1cccc([N+](=O)[O-])c1 | -10% | 16% | -11% | 1.0% | -14% | -5% | -12% | -4%
CCOC(=O)c1c(-c2ccc(OC)cc2)csc1NC(=O)C1CCCO1 (stereo not given) | ? | -2% | ? | nt | nt | 0% | 11% | -25%&-25%
COc1ccc(Nc2ncccc2C(=O)O)cc1 | 83%[activator] | 4% | ? | 0.6% | 7% | -6% | -6% | 15%
CC12C(=O)N(n3cnnc3)C(=O)C1C1C=CC2C1 (stereo not given) | -20% | 0% | 2% | 1.7% | 1% | -2% | 6% | 0%
COC(=O)c1ccc(N(C(=O)CNC(=O)c2ccco2)C(C(=O)NCC2CCCO2)c2ccc(OC)c(OC)c2)cc1 (stereo not given) | -7% | -1% | -3% | nt | nt | 0% | -17% | 8%[46.1 µM]
O=C(/C=C/c1ccc(S(=O)(=O)N2CCOCC2)cc1)N1CCCCC1 | -8% | 3% | -10% | nt | nt | nt | 21% | 3%[46.1 µM]
S=C(NN=C1C2CC3CC(C2)CC1C3)Nc1ccccc1 | 58%[activator] | 13% | 16% | -5.1% | 3% | -9% | -8% | -9%[46.1 µM]
CCN(CC)c1nc2ccccc2[nH]1 | -2% | -6% | 22% | 1.3% | -5% | -6% | -1% | ?
CCc1ccc(NC(=O)C2CCCCC2C(=O)O)cc1 (stereo not given) | nt | -5% | 1% | -1.9% | 5% | 6% | -3% | 14%
O=C(CN(C(=O)CCC(=O)Nc1ccccn1)c1ccc2c(c1)OCO2)NCc1ccc(F)cc1 | 34%[activator] | 2% | nt | nt | nt | -7% | -26% | -26%[46.1 µM]
COc1ccc(S(=O)(=O)CCC(=O)N(C)c2ccc(OC)cc2OC)cc1 | -23% | 18% | ? | 7.0% | 0% | -6% | -1% | 5%
COC(C(=O)N1CCC(CCC(=O)Nc2ccccc2)CC1)c1ccccc1 (stereo not given) | 15% | 6% | 11% | nt | nt | -16% | -12% | 21%
COc1ccc(C/C(C)=N\NC(=O)c2cn(C)c3ccccc23)cc1OC | -13% | -1% | nt | nt | nt | -5% | 10% | nt
O=C(c1ccco1)N1C2C=CC(C2)C1(C(F)(F)F)C(F)(F)F (stereo not given) | -8% | -10% | 1% | 1.0% | -8% | 9% | -2% | 15%
Cn1c(=O)c2nc(SCC(=O)Nc3ccc(Cl)c(Cl)c3)n(C)c2n(C)c1=O | -17% | nt | -26%[46.1 µM] | 0.4% | -5% | nt | nt | nt
CC(=O)Nc1nc2cc3c(cc2s1)OCO3 | 47%[activator] | 4% | nt | 2.8% | 9% | -55% | -11% | nt
CCCn1c(SCCN2C(=O)c3ccccc3C2=O)n[nH]c1=O | 11% | -3% | 3% | 1.7% | -13% | 8% | 6% | 0%
CN1CC(=O)N(CC(=O)Nc2cccc(C#N)c2)c2ccccc2C1=O | -20% | nt | 6%[46.1 µM] | 2.0% | 23% | nt | nt | nt
COc1ccc(-n2nc(C(=O)NCC(=O)NCCCN3CCOCC3)c3ccccc3c2=O)c(OC)c1 | -12% | 0% | -2% | nt | nt | -12% | -29% | 1%[46.1 µM]
CC(C)NC(=O)/C(=C/c1cn(-c2ccccc2)nc1-c1cccc([N+](=O)[O-])c1)NC(=O)c1ccccc1 | -15% | 5% | -1% | -6.8% | 9% | 18% | 4% | -7%
C=CCOc1ccc(CNC(C)(C)CO)cc1OC | 11% | 3% | -18% | 0.4% | 6% | 9% | 0% | 13%
CCC(C)c1ccccc1N1CC(C(=O)Nc2cccc(S(=O)(=O)N3CCOCC3)c2)CC1=O (stereo not given) | -13% | -1% | ? | nt | nt | 5% | -13% | -13%
O=C1NCCCN1Cc1ccc(F)cc1 | 17% | -2% | -10% | 3.6% | 1% | 6% | -4% | 0%
CC(C)CC(NS(=O)(=O)c1ccc2[nH]c(=O)c(=O)[nH]c2c1)C(=O)O (stereo not given) | -9% | 2% | 0% | nt | nt | 7% | 7% | ?
Cc1cccc(NC(=O)Cc2cccs2)n1 | 75%[activator] | nt | 26% | 0.3% | -6% | 4% | 0% | ?
CC(C#N)(NC(=O)CN1CCN(S(=O)(=O)c2ccccc2C#N)CC1)C1CC1 (stereo not given) | -10% | 0% | 9% | nt | nt | nt | -3% | 4%
Cc1ccc(NC(=O)N2CC2)cc1NC(=O)N1CC1 | -15% | nt | 10%[46.1 µM] | nt | nt | nt | 5% | 11%[46.1 µM]
Cc1nn(-c2ccccc2)c2nc(=O)n(-c3ccccc3)cc12 | -19% | 5% | 3% | 3.9% | -12% | 0% | -5% | ?
COc1cccc(CC(=O)Nc2ccc(N3CCOCC3)c(S(=O)(=O)Nc3ccccc3OC)c2)c1 | -5% | nt | 7% | nt | nt | nt | -2% | ?
N=C(N)SCP(=O)(c1ccccc1)c1ccccc1 | -28% | 0% | ? | nt | nt | 3% | 5% | -24%
CCC(C(=O)N1C[C@H]2C[C@@H](C1)c1cccc(=O)n1C2)c1ccccc1 (stereo not given in full) | -16% | 1% | nt | nt | nt | -7% | -2% | nt
C=CCn1c(C(C)NC(=O)c2cccc(C)c2)n[nH]c1=S (stereo not given) | -4% | 0% | nt | nt | nt | 0% | -19% | nt
COc1ccccc1NS(=O)(=O)c1cc(C(=O)N2CCCCCCC2)ccc1C | 17% | -2% | nt | nt | nt | nt | 5% | ?
CCCOc1ccc(C(=O)CCCC(=O)c2ccc(OCCC)cc2)cc1 | -5% | 5% | nt | nt | nt | 3% | -10% | nt
N#Cc1ccc(NC(=O)CCNC(=O)c2ccco2)cc1Cl | 4% | 0% | 1% | nt | nt | -2% | 1% | -2%[46.1 µM]
O=C(C1CCCN1S(=O)(=O)c1ccc(Cl)cc1)N1CCOCC1 (stereo not given) | 7% | 0% | 15% | -0.1% | 8% | ? | -15% | 9%
COc1cccc(CN2CCSCC2)c1 | nt | -4% | 1% | -1.3% | 0% | -4% | 80% | 4%
CCCn1c(N)c(CC)c(=O)[nH]c1=O | 5% | 0% | -7% | nt | nt | 13% | 0% | 6%[46.1 µM]
Cc1cccn2c(CN3CCSCC3)c(C(=O)N3CCOCC3)nc12 | -2% | -1% | 18%[46.1 µM] | nt | nt | -1% | 10% | 8%[46.1 µM]
CC(=O)N1CCc2cc(S(=O)(=O)CCC(=O)Nc3cc(C)cc(C)c3)ccc21 | -7% | 4% | nt | nt | nt | 1% | -1% | nt
C=CCn1c(SCC(=O)Nc2ccccc2F)nnc1C(C)NC(=O)c1ccccc1F (stereo not given) | -17% | 2% | ? | nt | nt | 0% | 1% | -2%
Cn1cc(CN2CCN(CCc3ccccc3)C(CCO)C2)cn1 (stereo not given) | -21% | -1% | nt | nt | nt | 6% | -13% | nt
More entries.
SMILES | 2A StopGo | SARS PLP yeast | LASV entry inh | Cruzain Triton | Cruzain noTriton | NS1 inh | RE007 growth inh | Marburg entry inh
O=C(Nc1nc2ccc(S(=O)(=O)N3CCCCC3)cc2s1)c1cccnc1 | 1% | -6% | -8% | -5.3% | 7% | -3% | 1% | 1%
CS(=O)(=O)N(Cc1ccccc1)c1ccc(C(=O)N2CCc3ccccc3C2)cc1 | ? | -2% | ? | -1.4% | ? | 0% | 22% | -8%
Cc1cc(SCc2ccc(C(F)(F)F)cc2)nc(=O)[nH]1 | 9% | 2% | nt | nt | nt | -12% | -10% | nt
CCOC(=O)c1c(N)sc(C(=O)N(C)C)c1C | 0% | 6% | -2% | 1.8% | -2% | 5% | 0% | 3%
CCOC(=O)C1(CCOC)CCN(Cc2ccc(C3CCCCO3)s2)CC1 (stereo not given) | -6% | 0% | -19%[46.1 µM] | nt | nt | 0% | -22% | ?
CCOC(=O)c1c(NC(=O)COC(=O)Cn2c(C)nc3ccccc32)sc2c1CCCC2 | ? | -7% | 5% | -5.6% | ? | 5% | -17% | 11%
O=C(CSc1nnc(CNc2ccc(F)cc2)n1-c1ccccc1)N1CCOCC1 | -20% | -5% | 1% | -0.4% | 15% | -2% | 31% | 2%
CCOc1ncccc1C(=O)N1CCCSC1=Nc1ccccc1OC | 27% | -2% | -10%[46.1 µM] | nt | nt | 1% | 9% | 13%[46.1 µM]
CCOC(=O)c1[nH]c2c(c1Cc1ccccc1)C(=O)CC(c1ccc(C(C)(C)C)cc1)C2 (stereo not given) | 0% | nt | -14%[46.1 µM] | -3.6% | 10µM* | nt | nt | ?
